ALR H2O2 inh: inhibitors of human sulfhydryl oxidase ALR. AID 485317. 290,000 compounds, 3.8% hits. P55789. inhibition, % (test concentration not listed). purified ALR, DTT oxidation, H2O2 HRP-luminol luminescence;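 active means mean and each replicate at 75% or more; inconclusive means only one of the two met; inactive means neither met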;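 further: stock transfer was 7.5 nL into about 7.5 µL; 0% = neutral wells and 100% = wells with inactivated enzyme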
Target sequence (P55789 whole entry, looked up): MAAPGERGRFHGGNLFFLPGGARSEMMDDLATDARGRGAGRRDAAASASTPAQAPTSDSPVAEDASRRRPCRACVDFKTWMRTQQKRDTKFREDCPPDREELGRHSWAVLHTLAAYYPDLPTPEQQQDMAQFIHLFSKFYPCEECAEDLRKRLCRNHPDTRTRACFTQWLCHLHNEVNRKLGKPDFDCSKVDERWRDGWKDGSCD
FGF22 binding: binders of recombinant human FGF22 by thermal shift; 340,000 compounds, 1.5% hits; calls only at 9.99 µM; SYPRO orange fluorescence; percent of sucrose octasulfate shift, DMSO zero; Q9HCT0;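 active means melting point raised past a set limit in the mean and every replicate; inconclusive means no clear call; three in four hits are not shown here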
Target sequence (Q9HCT0 whole entry, looked up): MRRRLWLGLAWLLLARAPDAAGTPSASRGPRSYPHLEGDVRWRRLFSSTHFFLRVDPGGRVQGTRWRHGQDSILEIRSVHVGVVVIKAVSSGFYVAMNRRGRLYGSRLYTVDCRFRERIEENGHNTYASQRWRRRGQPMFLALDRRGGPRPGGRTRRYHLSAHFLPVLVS
MLL AF4-AF9 inh: blocks AF4 peptide binding to human AF9; P42568; AlphaScreen, biotin-AF4 peptide binding to FLAG-AF9; inhibition, % at 10 µM; 350,000 compounds, 0.47% hits; AID 651704;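 active means every replicate reaching a set inhibition limit, whatever the replicate mean, cut at about 25% in these data; inconclusive means mean inhibition reaches that limit but some replicates miss it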;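 further: 0% = plate neutral control median and 100% = total signal loss; the record names both 10 and 1 µM as test concentration; the first replicate is given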
Ecoli rRNA inh: inhibitors of bacterial rRNA selective over humanized ribosomes; E. coli WT GFP vs humanized-ribosome RFP mutants, fluorescence, 24 h; active compounds read low; DMSO median 0, no signal -100; GFP signal change (wild-type ribosome), % (no concentration beside the values); 350,000 compounds, 1.6% hits; AID 720706;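 active means significant combined selectivity score with lowered wild-type GFP, culture density cut under 30%, mutant RFP and density less affected; inactive means any of these conditions unmet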; further: one replicate is shown; some compounds called inactive have numbers as strong as hits
E coli growth: inhibitors of Escherichia coli growth; OD600, 23 h; active compounds read low; OD600 absorbance (concentration not given with the values); 330,000 compounds, 0.21% hits;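 active means OD600 absorbance below the run mean of sample wells minus 3.6 SD, in any replicate, cut at about 0.56 in these data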;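 further: stock transfer was 300 nL into about 60 µL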
HNF4A DNA FP: change in binding of human HNF4 alpha to DNA; HNF4a-FITC DNA binding, fluorescence polarization, 1 h; activity change, % at 10 µM; 360,000 compounds, 0.3% hits; AID 1224865; in the data active means activity change above about 30%, passing the limit was not always enough;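 further: controls were the assay level and a saturating level of protein; the project sought stronger binding though the title names inhibitors; some compounds called inactive have numbers as strong as hits; positive values seem to mean higher polarization but the record does not say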
Target sequence (P41235 whole entry, looked up): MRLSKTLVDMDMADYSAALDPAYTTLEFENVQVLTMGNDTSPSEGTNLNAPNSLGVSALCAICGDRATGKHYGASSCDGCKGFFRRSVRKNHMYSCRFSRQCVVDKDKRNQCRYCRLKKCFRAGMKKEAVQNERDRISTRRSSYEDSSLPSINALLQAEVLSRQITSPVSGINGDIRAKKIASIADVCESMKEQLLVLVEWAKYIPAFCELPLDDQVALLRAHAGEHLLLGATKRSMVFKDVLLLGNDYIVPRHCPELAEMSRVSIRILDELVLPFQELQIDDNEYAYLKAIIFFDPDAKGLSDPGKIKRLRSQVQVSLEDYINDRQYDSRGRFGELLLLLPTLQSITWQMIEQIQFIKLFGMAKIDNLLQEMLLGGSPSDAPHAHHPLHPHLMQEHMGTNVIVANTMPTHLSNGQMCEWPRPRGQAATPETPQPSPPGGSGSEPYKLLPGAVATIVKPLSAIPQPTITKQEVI
Vif A3G: HIV-1 Vif–A3G interaction blockers – biochemical, TR-FRET, GST-Vif 1-94, biotin-A3G peptide, dose response retest, primary screen (AID 1117319); TR-FRET GST-Vif / biotin-A3G peptide binding; higher % means a stronger effect; test concentration not given here; strong numbers were not always called active; inhibition, %; hits with a dose series show IC50 in µM; 260,000 compounds, 0.57% hits;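 active means above the screen mean plus three standard deviations and confirmed in dose response; inconclusive means results disagree or hit not tested in dose response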;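 further: Vif residues 1-94 fused to GST binding biotinylated APOBEC3G peptide 110-148; 0% = full assay without inhibitor and 100% = GST in place of GST-Vif; retest series ran down from 100 µM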
Ecoli rRNA inh OD600: second read-out of Ecoli rRNA inh, no call of its own (marks repeat the call); OD600 change, %; measured here: OD600 growth;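 optical density of the mix in the first replicate; 0 = DMSO median and -100 = no signal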
Ecoli rRNA inh RFP: second read-out of Ecoli rRNA inh, no call of its own (marks repeat the call); RFP signal change, %; measured here: RFP humanized mutant strains;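 first replicate; 0 = DMSO median and -100 = no signal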
* marks the source's active call; other numbers are inactive results; i = inactive; u = inconclusive; x = no result given; & = joins results of further samples.

SMILES	ALR H2O2 inh	FGF22 binding	MLL AF4-AF9 inh	Ecoli rRNA inh	Ecoli rRNA inh OD600	Ecoli rRNA inh RFP	E coli growth	HNF4A DNA FP	Vif A3G
C[C@@H]1CN([C@@H](C)CO)C(=O)Cc2cc(NC(=O)CCC(F)(F)F)ccc2O[C@@H]1CN(C)S(=O)(=O)c1ccccc1	x	i	-0.2	-3	2	0.7	x	x	x
CCN(CC)Cc1nc2nc(Cl)c(Cl)nc2[nH]1	x	i	-0.8	9	7	1.9	x	-2.4	3%
O=C(O)CCSc1ccccn1	-2	i	1.5	17	7	2.6	0.7	-2.5	5%
O=C(CSc1cn(CCNC(=O)c2c(F)cccc2F)c2ccccc12)NCC1CCCO1 (centres undefined)	2	i	-2.9	5	4	0.1	0.66	-4.2	3%
COc1ccccc1N1CCN(C(=O)c2cc(C(=O)N3CCN(c4ccccc4OC)CC3)cc([N+](=O)[O-])c2)CC1	0	i	2.8	15	11	3.0	0.69	3.5	x
CCCN(CCC)Cc1c(C(=O)N/N=C/C(C)=C\c2ccccc2)nnn1-c1nonc1N	x	i	-0.6	8	-13	6.4	x	2.1	x
CN(C)CC(=O)Nc1ccc2c(c1)[C@H]1C[C@H](CC(=O)NCc3cccnc3)O[C@@H](CO)[C@H]1O2	x	i	-0.3	0	9	-6.1	x	x	x
COc1ccccc1C(=O)COC(=O)CN1C(=O)c2ccccc2C1=O	-3	i	-0.9	x	x	x	0.71	-1.3	-2%
CC(=O)N(C)C[C@H]1Oc2cc(C#CC(C)(C)O)ccc2S(=O)(=O)N([C@@H](C)CO)C[C@@H]1C	x	i	-0.2	10	14	-2.0	x	x	x
CC1c2[nH]c3ccccc3c2C[C@H]2C(=O)N(CCO)CC(=O)N12 (some centres undefined)	x	i	-0.8	-1	4	0.0	0.66	0.3	3%
NC(=S)NNc1cccc2cccnc12	1	i	6.7	-26	14	-18	0.68	9.5	x
COc1ccc(Cc2nc(-c3cccc(C)c3)no2)cc1	1	x	x	x	x	x	0.72	3.2	9%
CCOCCCNC(=O)CNC(=S)N(Cc1ccc(C)cc1)Cc1ccco1	0	i	-1.3	-12	0	2.6	0.72	2.8	-5%
CC1(C)CC(=O)C(C=N)=C(O)C1	x	x	x	x	x	x	0.77	-0.5	15%
C#Cc1ccc(CN2CCC(Oc3ccc(C(=O)NCc4ccccn4)cc3)CC2)cc1	-2	i	3.5	-4	-8	2.0	0.64	3.0	x
Nc1cc([N+](=O)[O-])ccc1Nc1ccccc1	99*	i	19	-19	-16	-3.7	0.66	8.6	-11%
Cc1cc(C(=O)Nc2ccccc2C)on1	x	i	0.9	13	11	-0.5	0.68	2.2	x
C[C@H](CO)N1C[C@H](C)[C@H](CN(C)Cc2ccc(C(F)(F)F)cc2)Oc2ccc(NC(=O)c3ccncc3)cc2C1=O	x	i	2.3	-2	2	-0.4	x	x	x
CCN(CC(=O)NCc1cccs1)C(=O)/C=C/c1cc(Br)ccc1OC(F)F	-3	i	1.8	-9	-2	1.2	0.68	0.5	-8%
CN1c2ccc(-c3ccc(F)cc3)cc2[C@@H]2[C@@H](CCN2C(=O)c2cccc(F)c2)[C@@H]1CO	x	i	3.1	-19	-51	29	x	x	x
C[C@H](NC(=O)C[C@H]1C=C[C@@H](NC(=O)C2CCOCC2)[C@H](CO)O1)c1ccccc1	x	i	-0.5	3	4	7.4	x	x	x
CCN(C(=O)COc1ncnc2ccc(Br)cc12)C1CCS(=O)(=O)C1 (centres undefined)	-12	x	x	x	x	x	0.68	1.6	4%
Cc1oc(-c2ccccc2F)nc1CSCC(=O)NC1CCC(C)CC1 (centres undefined)	-35	i	1.3	-6	-6	2.0	0.65	2.9	-1%
CN(C(=O)C1CCC(=O)N(C2CC2)C1)C1CCCCC1 (centres undefined)	-3	i	0.3	5	5	-1.3	0.7	-0.7	x
CCOc1ccccc1NC(=O)C(OC(=O)c1cc(C)oc1C)c1ccccc1 (centres undefined)	3	i	-1.2	0	-16	-2.6	0.7	-0.1	x
CCN1[C@@H]2c3ccc(C4=CCCCC4)c(=O)n3C[C@H]1[C@H](CO)[C@H]2C(=O)NCCOC	x	i	-11	-3	-13	-0.1	x	x	x
C[C@H]1CN([C@@H](C)CO)S(=O)(=O)c2ccc(-c3ccncc3)cc2O[C@@H]1CN(C)Cc1ccccc1	x	i	9.7	-55	-76	-14	x	x	x
C[C@H](CO)N1C[C@H](C)[C@H](CN(C)Cc2ccc(C(=O)Nc3ccccc3N)cc2)Oc2ccc(NC(=O)Cn3cnnn3)cc2C1=O	x	i	2.5	0	4	-0.9	x	x	x
C[C@@H]1CN([C@H](C)CO)C(=O)c2cc(NC(=O)c3ccncc3)ccc2O[C@H]1CN(C)C(=O)Nc1cccc2ccccc12	x	i	-0.1	3	6	0.3	x	x	x
C[C@H](CO)N1C[C@H](C)[C@@H](CN(C)CC2CCCC2)Oc2cc(C#CCN(C)C)ccc2S1(=O)=O	x	i	8.6	4	13	-1.3	x	x	x

Part of the list above, with bars between the fields:
Structure | ALR H2O2 inh | FGF22 binding | MLL AF4-AF9 inh | Ecoli rRNA inh | Ecoli rRNA inh OD600 | Ecoli rRNA inh RFP | E coli growth | HNF4A DNA FP | Vif A3G
C[C@H](CO)N1C[C@H](C)[C@H](CN(C)Cc2ccc(C(=O)Nc3ccccc3N)cc2)Oc2ccc(NC(=O)Cn3cnnn3)cc2C1=O | x | i | 2.5 | 0 | 4 | -0.9 | x | x | x
CCN(C(=O)COc1ncnc2ccc(Br)cc12)C1CCS(=O)(=O)C1 (centres undefined) | -12 | x | x | x | x | x | 0.68 | 1.6 | 4%

Next structures follow:
SMILES	ALR H2O2 inh	FGF22 binding	MLL AF4-AF9 inh	Ecoli rRNA inh	Ecoli rRNA inh OD600	Ecoli rRNA inh RFP	E coli growth	HNF4A DNA FP	Vif A3G
O=[N+]([O-])c1ccc(COc2ccc(-c3[nH]ncc3-c3ccc(Cl)cc3)c(O)c2)cc1	-12	x	x	x	x	x	0.73	-3.0	x
CC(Nc1n[nH]c(=O)[nH]c1=O)C(=O)N/N=C/c1ccccc1 (centres undefined)	0	i	-1.2	-1	-6	-4.8	x	-2.0	-6%
Cc1cc(Nc2ccccc2)c2c([N+](=O)[O-])c(C)cc(C)c2n1	-2	x	x	x	x	x	0.69	-0.5	0%
COC(=O)CNC(=O)Cn1c(=O)n(Cc2ccc(F)cc2)c(=O)c2sccc21	2	i	0.2	-7	-4	-0.8	0.7	0.8	u
COc1cc(F)ccc1Oc1cccc2c1S(=O)(=O)N([C@H](C)c1ccccc1)C[C@@H](COCc1ccccc1)O2	x	i	-2.2	13	8	2.9	x	x	x
COc1cccc(N/C(N)=N/c2nc(CSc3ccccn3)cc(=O)[nH]2)c1	-30	x	x	x	x	x	0.71	x	10%
Cc1ccc(C)c(NC(=O)CN(C)C(=O)c2sccc2C)c1	-1	i	-0.9	9	7	-1.5	0.64	-3.2	5%
O=C(CN1CCCC1)NC12CC3CC(CC(C3)C1)C2	-2	i	3.2	-1	2	0.8	0.7	5.0	x
CCN(C(=O)c1cc2c(=O)[nH]c3ccc(C)cc3c2s1)c1ccccc1F	-14	i	-10	6	7	1.3	0.67	-2.3	u
CCCNC(=O)Nc1ccc2c(c1)C(=O)N(C)C[C@H](OC)[C@H](C)CN(Cc1cncnc1)[C@H](C)CO2	x	i	-2.1	0	6	-2.1	x	x	x
O=C(Cc1c(Cl)cccc1Cl)NCCc1ccc(Cl)cc1	-6	x	x	x	x	x	0.73	-1.5	-5%
CCC(c1nnc(SCC(=O)NCCc2ccc(Cl)cc2Cl)o1)N(C)C (centres undefined)	42	x	x	x	x	x	0.69	-2.8	18%
Cc1ccc(NC(=O)C2CCN(S(=O)(=O)c3ccc(C(C)(C)C)cc3)CC2)cc1S(=O)(=O)N1CCOCC1	x	i	-0.4	-2	7	-3.4	0.69	1.5	x
COc1ccc(OC)c(S(=O)(=O)N2CCCC(N3CCN(c4ccccc4)CC3)C2)c1 (centres undefined)	3	i	6.8	-3	-6	1.0	0.7	-0.8	x
Cc1ccc(C2=NNC(C(O)C(O)C(O)C(C)O)S2)cc1 (centres undefined)	-2	x	x	x	x	x	0.71	3.9	11%
C[C@H]1CN([C@@H](C)CO)S(=O)(=O)c2ccc(/C=C/c3ccccc3)cc2O[C@H]1CN(C)Cc1cncnc1	x	i	18	-6	-40	25	x	x	x
COc1ccc(C(=O)NC(C(=O)NCC2CCCO2)C(C)C)cc1 (centres undefined)	-5	i	-0.8	6	11	0.5	0.72	3.9	7%
Cc1cc(C)n(-c2nnc(C)n2/N=C/c2ccco2)n1	-3	x	x	x	x	x	x	-1.5	-5%
CN1C(=O)c2cc(NC(=O)Cc3ccccc3)ccc2OC[C@H]2O[C@H](CC(=O)O)CC[C@@H]21	x	i	-1.7	0	-10	-3.0	x	x	x
O=C(CN(c1ccc(F)cc1)S(=O)(=O)c1ccc2c(c1)OCCO2)NCc1ccncc1	x	x	x	x	x	x	0.64	-2.8	10%
C[n+]1cccc(C(=O)O)c1	x	i	-3.7	x	x	x	x	-6.7	x
CCC(C)NC(=O)C1(O)c2ccccc2NC(=O)N1c1ccc(C)c(C)c1 (centres undefined)	-19	i	-1.3	0	5	0.8	0.69	1.4	-7%
O=C(NC(=S)N1CCCC1)c1cccc([N+](=O)[O-])c1	-2	i	-1.7	1	3	-2.9	0.71	-2.3	0%
Cc1ccc(-c2ccc(/C=N/n3cnnc3)o2)cc1Cl	-15	x	x	x	x	x	x	5.4	2%
Cc1ccc2[nH]c3c(=O)n(CCCN4CCN(C)CC4)cnc3c2c1	-4	x	-0.3	x	x	x	0.7	-1.0	30%
CCS(=O)(=O)N1Cc2cc(C(=O)NCCOC)nc(-c3cccc(-c4ccncc4)c3)c2[C@H]1CCO	x	i	-10&-2.2	-8&5	-4&-6	-2.4&-0.9	x	-2.3	x
Cc1ccc(OCC(=O)O/N=C(\N)Cc2ccc([N+](=O)[O-])cc2)cc1C	x	i	-4.3	-4	1	3.5	0.64	-3.9	-3%
CCOc1ccc(S(=O)(=O)N(C)CCO)cc1-c1nc2c(C(C)(C)C)nn(C)c2c(=O)[nH]1	-11	x	x	x	x	x	0.64	-0.3	3%
CO[C@@H]1CN(C)C(=O)c2cc(NC(=O)Nc3cccc(F)c3)ccc2OC[C@H](C)NC[C@@H]1C	x	i	1.0	1	6	0.8	x	x	x
CC(=O)N(c1ccccc1C)c1ccccc1C	x	i	7.5	9	11	4.4	0.63	-3.0	-4%
Cc1ccc(S(=O)(=O)Nc2ccc3c(c2)C(=O)N([C@H](C)CO)C[C@H](C)[C@H](CN(C)S(=O)(=O)c2c(C)noc2C)O3)cc1	x	i	2.1	3	10	-0.8	x	x	x
CCOC(=O)C1CCN(c2c([N+](=O)[O-])c(C(Cl)Cl)nn2-c2ccccc2)CC1	-1	x	x	x	x	x	0.65	-1.3	u
COc1ccc(OC)c(CN2CCN(C(=O)c3cccs3)CC2)c1	-2	x	x	x	x	x	0.66	-1.7	1%
O=C(NN=Cc1ccc2c(c1)CCC2)c1ccccc1[N+](=O)[O-]	x	i	2.2	0	6	1.3	x	0.8	0%
COC(=O)c1cc(OC)c(OC)cc1NC(=O)CSc1ccccc1	-10	x	x	x	x	x	0.72	-1.8	-8%
CCc1ccc(S(=O)(=O)Nc2ccc(-c3ccc4nncn4n3)cc2)s1	-8	i	-6.2	-12	-9	3.8	0.71	2.3	-1%
CCOC(=O)Nc1ccc2c(c1)N(C(=O)C(C)N1CCCC1)c1ccccc1CC2 (centres undefined)	18	x	x	x	x	x	0.68	1.5	12%

Bioassay records as filed in PubChem.

Not all compounds are listed; the hit share may differ from the screen's.
